# Bioassay records as filed in PubChem BioAssay.
# eIF4H inh – inhibitors of RNA binding by human eIF4H; eIF4H fluorescence polarization binding assay; 290,000 tested, 0.94% active; Q15056; inhibition, % at 35 µM;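 active means 50% or more with normal probe brightness, or confirmed in later tests; about a fifth of its hits are not listed in these tables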;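 further: calls also rest on retests at 20 µM and on dose response follow-up; 0% = protein and probe with vehicle and 100% = probe without protein; strong numbers were not always called active; many hits fall short of the cut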
# HIV Env fusion – HIV envelope-mediated fusion inhibition; HeLa-JRFL Env/CEM21 cell fusion, luciferase; inhibition, % at 12.3 µM; 360,000 tested, 1.1% active; AID 651610;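 active means mean replicate inhibition score of at least 50 and every replicate individually at or above 50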;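 further: 0% = plate neutral controls and 100% = maraviroc near 300 nM; one replicate is shown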
# Rce1 inhib – blocks yeast Ras-converting enzyme | yeast membranes, quenched prenylated peptide cleavage fluorescence | calls only | 290,000 tested, 0.27% active | AID 2563;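 active means fall in fluorescence gain of 50% or more versus controls, with final raw signal at or below 3038400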;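 further: plate controls were neutral control wells for no effect and wells lacking membranes for full effect; tested at 10 µM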
# Target sequence (Q03530 whole entry, looked up): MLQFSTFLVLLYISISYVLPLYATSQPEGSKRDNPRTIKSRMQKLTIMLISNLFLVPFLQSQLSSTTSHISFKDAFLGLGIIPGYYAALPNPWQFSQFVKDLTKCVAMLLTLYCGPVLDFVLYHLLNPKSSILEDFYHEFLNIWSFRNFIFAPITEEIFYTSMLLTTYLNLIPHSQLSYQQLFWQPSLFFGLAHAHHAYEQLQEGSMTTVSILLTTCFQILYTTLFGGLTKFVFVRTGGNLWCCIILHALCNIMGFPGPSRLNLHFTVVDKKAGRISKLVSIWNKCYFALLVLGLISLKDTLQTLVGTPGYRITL
# UUG fidelity – alters start codon recognition fidelity in yeast; S. cerevisiae UUG-firefly luciferase reporter, luminescence/redox ratio; activity score, % at 18.7 µM; 350,000 tested, 0.13% active;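 active means replicate mean at a twofold rise or more, about +100% in these data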;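 further: firefly luciferase made from a UUG start codon reports start codon fidelity; reporter light over untreated wells divided by growth signal over untreated wells; some hits fall short of that in this replicate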
# CSC inhib – blocks cancer stem cells; cancer stem cell-like cells viability, luminescence; inhibition, % at 7.5 µM; 300,000 tested, 1.1% active; AID 2717;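 active means mean at 75% or more and at least half the replicates too; tested in HMLE shEcad cells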;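 further: 0% = median of negative and 100% = median of positive control wells; the first replicate is given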
# MT1-MMP act inh – MT1-MMP (human) activation inhibition; P50281; GFP/RFP ratio change, % at 20 µM; 360,000 tested, 0.061% active; HT1080 RFP-PRO-GFP cells, GFP/RFP ratio fluorescence, overnight; percent of plate control window, DMSO zero;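 active means GFP/RFP ratio change of at least 30% with cell ATP level not reduced by more than half and red fluorescence within 50% of control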; further: strong numbers were not always called active
#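 Assay system: HT1080 RFP-PRO-GFP cells | Dosing: 20 µM single dose, 1% DMSO | Incubation: Cells overnight before dosing, compound overnight, 37 °C, 5% CO2 | Evaluation: GFP/RFP fluorescence ratio | Control set: DMSO-only wells and HT1080 RFP-L50D-GFP cell wells as references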
# PABP FP inh – PABP-poly(A) binding inhibition | P11940 | PABP-poly(A) RNA binding, fluorescence polarization | inhibition, % at 35 µM | 290,000 tested, 1% active | AID 2014;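 active means 50% or more with normal probe brightness, or confirmed in later tests; about a fifth of its hits are not listed in these tables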;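 further: calls also rest on retests at 20 µM and on dose response follow-up; controls were probe without protein and protein plus probe with vehicle; some compounds called inactive have numbers as strong as hits; many hits fall short of the cut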
# eIF4H inh retest – further read-out of eIF4H inh, marked with its call; inhibition, %; compound at 20 µM; confirmation average;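 mean of two retest wells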
# PABP FP inh retest – also measured in PABP FP inh; calls as there; inhibition, %; compound at 20 µM; confirmation repeats;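 mean of two retest wells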
# MT1-MMP act inh RFP – second read-out of MT1-MMP act inh, no call of its own (marks repeat the call); RFP signal change, %; measured here: RFP expression control read;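 0 = vehicle wells; hits needed this value within 50% of zero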
# An asterisk follows results filed as active; i = inactive; / = no result given.
# A first look (4 entries):
SMILES,eIF4H inh,HIV Env fusion,Rce1 inhib,UUG fidelity,CSC inhib,MT1-MMP act inh,MT1-MMP act inh RFP,PABP FP inh,others
Cc1ccc(C)c(N2CCN(c3ncccc3[N+](=O)[O-])CC2)c1,-2,33,i,-21,26,-7,-6,-1,
CCOC(=O)C1CCN(C(=O)c2ccccc2NC(=O)C2=C(C)OCCS2)CC1,-7,0,i,45,-6,-1,4,13,
Cc1ccc(-c2nc3c(c(SCC(=O)N4CCOCC4)n2)Cc2c(CO)cnc(C)c2O3)cc1,-10,33,i,-8,1,4,3,2,
COc1ccc(OCC(=O)Nc2ccc3c(c2)nc(CN2CCN(C(C)=O)CC2)n3C)cc1,15,-8,i,-23,-7,3,-4,5,

# The whole of this part (from the top)
SMILES,eIF4H inh,HIV Env fusion,Rce1 inhib,UUG fidelity,CSC inhib,MT1-MMP act inh,MT1-MMP act inh RFP,PABP FP inh,others
Cc1ccc(C)c(N2CCN(c3ncccc3[N+](=O)[O-])CC2)c1,-2,33,i,-21,26,-7,-6,-1,
CCOC(=O)C1CCN(C(=O)c2ccccc2NC(=O)C2=C(C)OCCS2)CC1,-7,0,i,45,-6,-1,4,13,
Cc1ccc(-c2nc3c(c(SCC(=O)N4CCOCC4)n2)Cc2c(CO)cnc(C)c2O3)cc1,-10,33,i,-8,1,4,3,2,
COc1ccc(OCC(=O)Nc2ccc3c(c2)nc(CN2CCN(C(C)=O)CC2)n3C)cc1,15,-8,i,-23,-7,3,-4,5,
COc1ccc(C2OC(=O)CC2C(=O)NCc2ccc(C)cc2)cc1OC (stereo not given),-2,3,i,-8,-4,0,1,5,
CCOc1ccc(C(=O)OCC(=O)Nc2ccc(SC(F)F)cc2)cc1OCC,-9,/,i,-7,-9,4,3,2,
CC1(C)C(=S)N(Cc2ccccc2)c2ccccc21,-12,20,i,-8,-3,4,-3,-3,
OCCOCCn1c(CCNc2nc(-c3ccc(Cl)cc3)cs2)nc2cc(Cl)c(Cl)cc21,/,81*,i,-11,8,-3,-16,/,
CCOC(=O)CNC(=O)C1CCCc2c1[nH]c1ccc(Cl)cc21 (stereo not given),6,-28,i,/,/,-7,-8,2,
COc1ccc(S(=O)(=O)NC(=O)C2(C)CCN2C(=O)Cc2cc(C)cc(C)c2)cc1 (stereo not given),/,-7,/,-32,/,3,5,/,
CCc1nc(N)c(C#N)c(-c2cccn2C)c1C,/,14,i,-12,-7,1,3,/,
Cc1noc(C)c1C(=O)Nc1nc(-c2ccccc2Cl)cs1,-12,16,i,/,7,0,-7,-6,
Cc1c(C(=O)NCCCN2CCCC2=O)oc2ccc(S(=O)(=O)N3CCOCC3)cc12,-4,14,/,-10,-13,5,0,-1,
CCCC[C@@H]1C[C@H]1[C@@H](NC(=O)c1ccccc1)c1ccccc1C(F)(F)F,1,36,i,0,17,0,0,9,
CCOC(=O)C1(CC2CCCCO2)CCN(S(=O)(=O)c2ccc(OC)cc2)CC1 (stereo not given),2,-1,i,/,2,-1,2,-15,
Cc1ccc2nsnc2c1S(=O)(=O)N1CCCC1,-3,/,i,-24,3,3,1,-1,
Cc1ccccc1COn1nnc2ccc(S(=O)(=O)N3CCOCC3)cc21,/,16,i,/,-3,1,-2,/,
CCOc1ccc(NC(=S)NN(C)C(=S)Nc2ccc(OCC)cc2)cc1,-4,-41,i,/,14,-2,-2,8,
Cc1ccc(SCc2nc(-c3ccncc3)no2)cc1,4,/,i,-16,-12,2,-9,9,
COc1ccc(OC)c(CCNC(=O)c2cccc(NC3=NC4CS(=O)(=O)CC4S3)c2)c1 (stereo not given),-8,14,i,-19,-3,2,2,-3,

# In the list so far, these contain four or more nitrogen atoms.
SMILES,eIF4H inh,HIV Env fusion,Rce1 inhib,UUG fidelity,CSC inhib,MT1-MMP act inh,MT1-MMP act inh RFP,PABP FP inh,others
Cc1ccc(C)c(N2CCN(c3ncccc3[N+](=O)[O-])CC2)c1,-2,33,i,-21,26,-7,-6,-1,
Cc1ccc(-c2nc3c(c(SCC(=O)N4CCOCC4)n2)Cc2c(CO)cnc(C)c2O3)cc1,-10,33,i,-8,1,4,3,2,
COc1ccc(OCC(=O)Nc2ccc3c(c2)nc(CN2CCN(C(C)=O)CC2)n3C)cc1,15,-8,i,-23,-7,3,-4,5,
OCCOCCn1c(CCNc2nc(-c3ccc(Cl)cc3)cs2)nc2cc(Cl)c(Cl)cc21,/,81*,i,-11,8,-3,-16,/,
CCc1nc(N)c(C#N)c(-c2cccn2C)c1C,/,14,i,-12,-7,1,3,/,
Cc1ccccc1COn1nnc2ccc(S(=O)(=O)N3CCOCC3)cc21,/,16,i,/,-3,1,-2,/,
CCOc1ccc(NC(=S)NN(C)C(=S)Nc2ccc(OCC)cc2)cc1,-4,-41,i,/,14,-2,-2,8,

# Next structures follow.
SMILES,eIF4H inh,HIV Env fusion,Rce1 inhib,UUG fidelity,CSC inhib,MT1-MMP act inh,MT1-MMP act inh RFP,PABP FP inh,others
Cc1nc(C)n(CCNC(=O)c2ccco2)n1,1,-47,i,-13,-17,-2,2,1,
Cc1ccc(S(=O)(=O)N2c3ccc(S(N)(=O)=O)cc3CC2C)cc1 (stereo not given),-9,-1,i,-7,3,1,-2,8,
CC(=O)N1CCN(C(=O)CCc2nc3ccccc3c(=O)[nH]2)CC1,83,/,i,-21,13,6,-2,12,eIF4H inh retest=4;PABP FP inh retest=-2
CC1CN(C(=O)CCC(=O)NCc2ccc(Cl)cc2)c2ccccc2O1 (stereo not given),-20,-3,i,7,-7,3,2,-2,
Cc1cc(C)c(NC(=S)N(C)C)c(C)c1,-5,0,i,/,2,-3,-1,9,
COc1ccccc1N(CC(=O)NCCSCc1ccccc1Cl)S(C)(=O)=O,4,22,i,1,6,-3,-6,-6,
CCNc1ccc(P(=O)(c2ccccc2)c2ccccc2)cc1,0,3,i,/,-3,1,4,-1,
Cc1c(C)n2c(SCC(=O)N3CCOCC3)nnc2[nH]c1=O,/,-2,i,-9,-4,-6,1,/,
COc1ccccc1CN1C(=NC(=O)C2CCCCC2)SC2CS(=O)(=O)CC21 (stereo not given),36,2,i,/,-3,2,4,-16,
COc1cccc(C(=O)N2CCOCC2)c1OC,3,-4,i,/,7,4,2,-3,
C=CCN1CC(O)=C(c2nc3ccccc3[nH]2)C1=N,3,2,i,-8,2,2,3,-2,
Clc1ccc(CSc2ncnc3c2ncn3C2CCCCO2)cc1 (stereo not given),/,-10,/,-12,/,-3,-15,/,
COc1ccc(-n2c(CN3CCN(c4ccccc4)CC3)nc3ccc([N+](=O)[O-])cc3c2=O)c(OC)c1,-4,5,i,/,-7,-3,-3,-2,
CC(NC(=O)c1ccc(Cl)cc1)C1CC2CCC1C2 (stereo not given),-7,-94,i,-3,1,-3,-4,-8,
Cc1c(N(C(=O)CNC(=O)c2ccccc2)C2(C(=O)NC3CCCC3)CCCCC2)c(=O)n(-c2ccccc2)n1C,-6,-8,i,-7,-7,0,-1,11,
Cc1occc1C(=O)Nc1ccc2c(c1)CCC2,2,/,i,/,6,-8,-2,-5,
Clc1ccc(OCCCN2CCCC2)cc1Cl,10,/,i,/,-2,7,8,-3,
C/C(=N\Nc1cc(N2CCOCC2)ncn1)c1ccc(O)cc1,1,26,i,-20,-10,-7,-5,-6,
O=C(CCCN1C(=O)/C(=C/c2ccccc2Cl)SC1=S)NNC(=O)c1ccc(Cl)cc1,0,50,i,/,14,2,-3,-16,
Cc1ccc(Cc2c(-c3cccc(Cl)c3)nc3ccc(Cl)cn23)cc1,/,-78,/,-10,/,3,1,/,
COC(=O)c1ccc2c(c1)NC(=O)C1CCCN21 (stereo not given),/,/,i,-7,-4,0,5,/,
Cc1cc(C)n2nc(Cc3ccccc3)nc2n1,5,/,i,/,-6,-1,1,-5,
C=CCn1c(C)nc2c(sc3nc4c(cc32)COC(C)(C)C4)c1=O,11,-70,i,/,-10,3,3,13,
CC(Sc1ccc(Cl)cc1)C(=O)NNC(=O)c1ccco1 (stereo not given),/,-4,/,/,-15,-1,0,/,
Cc1ccc(OCc2n[nH]c(=S)n2-c2ccccc2)cc1C,2,0,i,/,5,0,2,-5,
CCOc1cccc(Oc2ncccc2C(=O)/C(C#N)=C/N(C)C)c1,-10,-17,i,-30,-5,-1,1,-4,
Cc1ccc(NC(=O)C2CCN(S(=O)(=O)c3ccc4c(c3)NC(=O)C(C)S4)CC2)cc1C (stereo not given),0,-5,i,-10,-1,-4,-24,4,
CN(CC(=O)Nc1ccccc1C(F)(F)F)Cc1c(O)ccc2ccccc12,5,11,i,-42,/,-2,3,-4,
O=C(NCCc1cccc(Cl)c1)c1ccc(OC2CCN(Cc3ccccn3)CC2)cc1,15,-23,i,-21,/,-2,-6,19,
O=C(CNc1ccccc1N1CCCC1=O)Nc1cc(C(F)(F)F)ccc1-n1cncn1,/,32,/,-16,/,0,0,/,
CCC(C)NCCOCCOc1ccc(Cl)cc1Br (stereo not given),25,13,i,1,12,4,-1,10,
CCOC(=O)C1=C(COC(=O)CNC(=O)c2ccc(Cl)cc2Cl)NC(=O)NC1C (stereo not given),/,-5,i,-9,4,1,3,/,
Cc1ccc(C)c(Cn2c(C(C)O)nc3ccccc32)c1 (stereo not given),-3,/,i,-20,/,1,-6,7,
O=C(/C=C(/c1ccc(Cl)cc1)n1cncn1)c1ccccc1,6,-38,i,/,/,-4,-3,17,
NS(=O)(=O)c1ccc(S(=O)(=O)N2CCN(C3CCCC3)CC2)cc1,2,-5,i,/,7,-3,-2,2,
COc1ccc(Cc2nnn(CC(=O)O)n2)cc1,-2,-9,i,-16,-4,1,2,8,
CC(=O)Oc1ccc2c(=O)c(-c3nc4ccccc4s3)coc2c1,3,-56,i,/,84*,-6,-1,-4,
O=C1CCCN1CN(C(=O)c1ccc2c(c1)OCO2)c1ccc(F)cc1,5,-9,i,-16,-4,3,-3,5,
CC1=NN(c2ccccc2)C(=O)/C1=C\c1cn(CCC#N)nc1-c1ccc(Cl)cc1,-5,26,i,/,4,7,-2,-3,
COc1ccc(CN(Cc2ccncc2)C(=O)CCC(=O)O)cc1,6,-8,i,-16,-11,4,0,2,

# The final two entries of the section before are carried over, then new ones follow.
SMILES,eIF4H inh,HIV Env fusion,Rce1 inhib,UUG fidelity,CSC inhib,MT1-MMP act inh,MT1-MMP act inh RFP,PABP FP inh,others
CC1=NN(c2ccccc2)C(=O)/C1=C\c1cn(CCC#N)nc1-c1ccc(Cl)cc1,-5,26,i,/,4,7,-2,-3,
COc1ccc(CN(Cc2ccncc2)C(=O)CCC(=O)O)cc1,6,-8,i,-16,-11,4,0,2,
COc1ccc2nc(NC(=O)CN3C(=O)NC4(CCCC4)C3=O)sc2c1,/,-8,i,/,-7,-3,-1,/,
CCOc1c(OC)cccc1C1CC(=O)Nc2cc3c(cc21)OCCO3 (stereo not given),10,-19,i,-2,28,-4,-4,-11,
CCSc1nnc(NC(=O)C(CC)(C(F)(F)F)C(F)(F)F)s1,0,/,i,-15,36,-3,-26,5,
O=C(CN1C(=O)NC2(CCCCC2)C1=O)N(Cc1ccco1)Cc1cccs1,/,-2,i,-7,-5,-4,1,/,
CC(OC(=O)c1cccc(S(=O)(=O)N2CCN(C)CC2)c1)C(=O)Nc1ccc(C(N)=O)cc1 (stereo not given),/,/,/,0,-16,5,4,/,
COc1ccc(CNC(=O)[C@H](C)N2C(=O)N3CCc4c([nH]c5ccc(OC)cc45)[C@@]3(C)C2=O)cc1,-9,/,i,-20,-3,0,-16,-7,
